Marburg entry inh: inhibitors of Marburg virus binding or cell entry | Marburg virus pseudotyped entry inhibition, cell reporter; control for the full effect not named in the record; about a third of the inactives were read at about 46 µM | Potency, µM (highest dose often 37.8 µM), for inactives: at the highest dose activity change, negative = inhibition, actives largely listed as inhibitors | 1.8% of 300,000 active; active = well fitted inhibition curve with a large enough effect; inconclusive = small, poorly fitted or top-dose-only effect, or effect the other way; inactive = flat fitted curve, though single readings scatter; tested in HEK293 cells; about a fifth of its hits are not listed in these tables; further: on the % scale 0 is the no-effect control and ±100 the full control effect; luciferase read-out
Cruzain inh noDet: inhibitors of Trypanosoma cruzi cruzain without detergent. P25779. purified cruzain, Z-FR-AMC fluorescence, no detergent. Potency, µM, without a hit: max response, negative = inhibition, usual class: inhibitors. 2.3% of 200,000 active. AID 1476;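 further: plate controls were enzyme without inhibitor for no effect and buffer without enzyme for full effect; nearly all actives have a fitted effect of over 40% in size; top concentration of the series not given in the record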
Target sequence (P25779 123-467 limits assumed): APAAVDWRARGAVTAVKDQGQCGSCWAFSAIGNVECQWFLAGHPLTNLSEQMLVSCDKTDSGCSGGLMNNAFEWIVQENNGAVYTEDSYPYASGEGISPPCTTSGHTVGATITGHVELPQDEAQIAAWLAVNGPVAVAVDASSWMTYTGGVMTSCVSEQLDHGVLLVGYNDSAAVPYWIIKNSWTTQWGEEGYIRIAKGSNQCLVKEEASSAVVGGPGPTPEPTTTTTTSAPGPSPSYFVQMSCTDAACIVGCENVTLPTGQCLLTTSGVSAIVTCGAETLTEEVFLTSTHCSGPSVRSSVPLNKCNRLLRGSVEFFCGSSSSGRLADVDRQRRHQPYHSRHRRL
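Detergent-free condition (0.00005% Triton X-100) in acetate buffer pH 5.5 with DTT. 1.5 nM enzyme and compound were pre-mixed 15 min, then 2 uM Z-FR-AMC substrate added; reaction progress from fluorescence change between first and third reads (60 s).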
SARS PLpro yeast: inhibitors of SARS-CoV papain-like protease in yeast | Potency, µM (top dose mostly 32.9 µM), for the others: at the top dose activity, positive = growth rescue | S. cerevisiae expressing SARS-CoV PLpro, growth rescue; control for the full effect not named in the record | 0.19% of 330,000 active | AID 485353; active means well fitted rising curve with a large enough effect; inconclusive means small, poorly fitted or top-dose-only effect; inactive means no such curve, though single readings can be large or run the other way; further: 0% is about no effect; nearly all actives have a fitted effect of over 55% in size; growth read by luminescence after 48 h
Lassa entry inh: Lassa virus entry inhibition; 1.2% of 300,000 active; AID 540256; Lassa virus pseudotype entry inhibition, cell reporter; control for the full effect not named in the record; Potency, µM (highest dose often 37.9 µM), inactives show at the top dose activity change, negative = inhibition, hits mostly inhibitors; active means well fitted inhibition curve with a large enough effect; inconclusive means small, poorly fitted or top-dose-only effect, or effect the other way; inactive means flat fitted curve, though single readings scatter; tested in HEK293 cells; further: on the % scale 0 is the no-effect control and ±100 the full control effect; nearly all actives have a fitted effect of over 50% in size; luciferase read-out
NS1 function inh: inhibitors of influenza NS1 protein function; S. cerevisiae slowed by influenza A NS1, growth recovery by OD600; 0.4% of 270,000 active; Potency, µM (top dose mostly 46.1 µM), for the others: top-dose activity, positive = more growth; AID 2326; active means well fitted rising curve with a large enough effect; inconclusive means small, poorly fitted or top-dose-only effect; inactive means no such curve, though single readings can be large or run the other way; further: nearly all actives have a fitted effect of over 50% in size
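S. cerevisiae expressing influenza A NS1, grown in glucose, washed, then diluted 1:100 into pH 6.0 -URA galactose medium with 23 nl compound. Growth recovery read as OD600; NS1-free strain serves as control.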
Cruzain Triton: blocks cruzain activity in presence of Triton detergent; P25779; purified cruzain, Z-FR-AMC fluorescence, 0.01% Triton; Potency, µM, inactives show max response, negative = inhibition, actives largely listed as inhibitors; 0.43% of 200,000 active; AID 1478;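 further: plate controls were neutral wells for no effect and buffer without enzyme for full effect; nearly all actives have a fitted effect of over 40% in size; top concentration of the series not given in the record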
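Compounds were screened in titration against cruzain (1.5 nM) with 0.01% Triton X-100 to counter colloidal aggregation. Activity was the AMC fluorescence increase over 60 s after adding 2 uM Z-FR-AMC at pH 5.5.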
StopGo reporter: FMDV 2A StopGo reporter, luciferase signal; human cells with a luciferase reporter of 2A StopGo recoding; control for the full effect not named in the record; Potency, µM (highest dose often 57.9 µM), inactives show top-dose signal change, negative = less light; 1.2% of 410,000 active; AID 1159524; active = well fitted falling curve with a large enough effect; inconclusive = small, poorly fitted or top-dose-only effect; inactive = no such curve, though single readings can be large or run the other way; tested in HEK293T cells; further: on the % scale 0 is the no-effect control and ±100 the full control effect; nearly all actives have a fitted effect of over 45% in size; luciferase light after 4 h
RE007 growth inh: less growth of the S. pombe RE007 Vpr strain | S. pombe RE007 Vpr strain, BacTiter-Glo ATP luminescence, 24 h; control for the full effect not named in the record | Potency, µM (series often up to 92.2 µM), for the others: top-dose activity change, negative = less growth | 0.21% of 360,000 active; active = well fitted falling curve with a large enough effect; inconclusive = small, poorly fitted or top-dose-only effect; inactive = no such curve, though single readings can be large or run the other way;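 further: on the % scale 0 is the no-effect control and ±100 the full control effect; nearly all actives have a fitted effect of over 50% in size; the assay follows cell death caused by Vpr and the record does not say whether a fall means rescue or toxicity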
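Fission yeast strain RE007, carrying one chromosomally integrated HIV-1 vpr copy, was seeded at OD 0.01 in PMG+AL medium with 23 nL pinned compound. After 24 h at 30 °C and 99% humidity, viability was read by BacTiter-Glo luminescence.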
Starred values were filed as active, the others as inactive; ? = inconclusive; . = not tested or not shown; [ ] = dose if it differs, or a comment. Unless noted, the call rests on the fitted dose curve; in most records, active means well fitted curve in the direction sought with a large enough effect; inconclusive means small, poorly fitted or top-dose-only effect, or another doubt; inactive means no such curve, though single readings can be large; an effect the other way counts as inactive or inconclusive. Potency means the concentration at half of the fitted maximal effect.

SMILES	Marburg entry inh	Cruzain inh noDet	SARS PLpro yeast	Lassa entry inh	NS1 function inh	Cruzain Triton	StopGo reporter	RE007 growth inh
COc1cc2c(cc1OC)C1(Nc3c-2c(-c2ccccc2)nn3-c2ccccc2)C(=O)Nc2ccccc21 (centres undefined)	?	16.6%	?	-25.4%	15.7%	-3.5%	-29.0%	-13.2%
COc1ccc(N2CCN(CC(=O)NCc3ccccc3)CC2)cc1	.	.	-0.3%	.	-0.7%	.	10.6%	-0.4%
CCOc1ccc(N(CC(=O)N2CCN(c3ccccc3OC)CC2)S(=O)(=O)c2ccc(C)cc2)cc1	?	.	-3.8%	-17.2%	15.5%	.	-12.5%	-15.6%
CCn1c(SCCN2CCOCC2)nc2c1c(=O)n(C)c(=O)n2C	1.3%	.	-7.0%	?	17.5%	.	-22.9%	8.1%
Cc1cc(=O)[nH]c(Nc2cccc(Br)c2)n1	.	.	1.5%	.	-0.1%	.	-9.6%	-11.9%
O=C(CCS(=O)(=O)c1ccc(Cl)cc1)NCCN1C(=O)S/C(=C\c2ccccc2F)C1=O	-22.6%	5.1%	-1.5%	16.8%	-0.8%	-10.7%	-10.7%	-0.4%
Cc1nc2sc3c(c2c(=O)n1/N=C/c1cccnc1)CCCC3	4.9%[46.1 µM]	.	0.3%	-5.5%	.	.	-17.0%	?
COc1cc(C(=O)N/C(=C\c2cn(C)c3ccccc23)C(=O)N2CCOCC2)cc(OC)c1OC	.	.	-0.5%	.	8.6%	.	-13.0%	7.5%
CCC(CC)C(=O)Nc1cccc(C(=O)c2ccccc2)c1	-2.5%	-5.2%	4.3%	-14.1%	-3.9%	-2.8%	-7.5%	9.4%
NS(=O)(=O)c1ccc(-c2ccc(/C=C3\NC(=S)NC3=O)o2)cc1	.	.	9.1%	.	-9.6%	.	-15.4%	-25.2%
CC1(C)CC(=O)C2=C(C1)OC(N)=C(C#N)C2c1ccc[nH]1 (centres undefined)	-18.2%[46.1 µM]	.	-4.2%	-14.0%	-4.6%	.	-7.2%	-4.5%
COc1cc(NC(=O)C2CC(c3ccccc3Cl)=NO2)cc(OC)c1OC (centres undefined)	.	.	-4.5%	.	-15.9%	.	-37.8%	8.9%
Cc1c(C(=O)Nc2cccc(F)c2)sc2nc(-c3cc4ccccc4oc3=O)[nH]c(=O)c12	.	-10.3%	.	-1.1%[46.1 µM]	.	-0.4%	-24.9%	.
CS(=O)(=O)N1CCC(C(=O)NCc2ccccc2)CC1	?	.	1.8%	?	9.1%	.	0.0%	14.5%
COc1ccccc1/C=C1/SC(=S)N(CCC(=O)Nc2cccnc2)C1=O	.	.	?	.	9.2%	.	?	4.4%
CC(C)c1cc(CNC(=O)c2ccc(OC3CCN(Cc4ccccn4)CC3)cc2)on1	.	.	4.4%	.	1.8%	.	-26.1%	-14.2%
O=C(CCS(=O)(=O)c1cccc2nsnc12)N1CCN(Cc2ccc3c(c2)OCO3)CC1	?	-9.7%	5.4%	-21.9%	-15.6%	-2.5%	-12.2%	5.8%
COc1cccc(N2CCN(Cc3nc(N)nc(N4CCCc5ccccc54)n3)CC2)c1	-4.4%[46.1 µM]	-13.3%	4.7%	11.8%	-23.1%	-7.8%	-28.5%	22.4%
CN(C)c1ccc(NC(=O)c2cccc(N3C(=O)C4C5C=CC(C5)C4C3=O)c2)cc1 (centres undefined)	0.3%	-7.4%	2.0%	8.2%	-9.1%	-5.6%	7.2%	-8.1%
Cc1ccccc1NC(=S)NCC1CCC(CNC(=S)Nc2ccccc2C)CC1 (centres undefined)	?	.	-1.5%	-17.3%[46.1 µM]	-0.1%	.	6.4%	-19.4%
CCOc1ccc(N(C)S(=O)(=O)c2ccc3c(c2)CCCN3C(C)=O)cc1	.	22.2%	.	?	.	-1.5%	?	.
Cc1ccc(-c2nnc(SCC(=O)NCC3CCCO3)nc2-c2ccc(C)cc2)cc1 (centres undefined)	?	.	9.0%	-4.8%[46.1 µM]	.	.	-14.2%	13.1%
CS(=O)(=O)CCC(C(=O)Nc1ccc2c(c1)OCO2)N1Cc2ccccc2C1=O (centres undefined)	.	.	-0.8%	.	1.4%	.	29.2%	-5.9%
CCC(C)[C@H](NC(=O)N1CCn2c1nc1ccccc12)C(=O)NCc1ccc(OC)cc1 (some centres undefined)	?	.	3.2%	?	-10.8%	.	15.3%	-19.2%
CC(=O)Nc1ccc(SCC(=O)NNC(=O)CN(C)S(=O)(=O)c2ccc(C)cc2)cc1	-8.7%[46.1 µM]	.	0.4%	-1.0%	.	.	4.0%	25.8%

The list goes on:
SMILES	Marburg entry inh	Cruzain inh noDet	SARS PLpro yeast	Lassa entry inh	NS1 function inh	Cruzain Triton	StopGo reporter	RE007 growth inh
C[C@H](NC(=O)[C@H](Cc1ccccc1)n1c(=O)[nH]c2ccccc2c1=O)C(=O)N1CCC(C(=O)O)CC1	.	.	2.1%	.	12.1%	.	-16.8%	1.0%
CC(C)CCn1c(=O)c2sccc2n2c(CCCC(=O)Nc3ccc(F)c(Cl)c3)nnc12	.	-11.4%	.	5.6%[46.1 µM]	.	-0.8%	-8.5%	.
O=C(c1ccccc1F)N1CCN(S(=O)(=O)c2ccc(S(=O)(=O)N3CCCCCC3)cc2)CC1	-17.3%	.	-3.5%	-15.3%	-7.4%	.	-15.0%	14.1%
CC(=O)N1N=C(c2ccco2)CC1c1cc2ccc(C)cc2nc1Cl (centres undefined)	?	.	-0.9%	-10.5%[46.1 µM]	4.4%	.	-12.3%	12.7%
O=[N+]([O-])c1ccc(S(=O)(=O)NN=C2CCCCC2)cc1	11.8%[46.1 µM]	.	.	1.1%[46.1 µM]	.	.	-5.1%	17.9%
Cc1sc(NC(=O)c2ccco2)c(C(c2cccnc2)N2CCCC2)c1C (centres undefined)	?	1.4%	-31.5%	-26.0%	-20.6%	-4.0%	1.7%	5.3%
CC(Sc1ccc(S(=O)(=O)N2CCOCC2)cn1)c1ccccc1Cl (centres undefined)	?	.	-9.2%	8.91µM*	.	.	-25.3%	?
Cc1cc(Br)ccc1NC(=O)CN1C(=S)NC(C)(C)CC1C (centres undefined)	0.9%	.	0.3%	1.1%	20.4%	.	-7.4%	-15.5%
O=C(c1cccs1)N1CCCC(c2nc3c(nnn3Cc3ccc(F)cc3)c(=O)[nH]2)C1 (centres undefined)	-1.1%[46.1 µM]	.	1.1%	.	?	.	-16.5%	0.3%
C=CCSC(CC)(CC)C(N)=O	5.5%[46.1 µM]	.	0.1%	-15.0%	1.9%	.	-11.9%	3.9%
O=[N+]([O-])c1cccc(NNS(=O)(=O)c2ccccc2F)c1	8.91µM*	.	-4.0%	?	-72.1%	.	-0.1%	222.2%
NC(=O)c1ccccc1NC(=O)CCc1ccccc1	18.0%	1.5%	2.5%	?	-8.8%	1.7%	47.1%[activator]	-10.9%
CC(=O)Nc1ccc(NC(=O)C(C)OC(=O)c2ccc(N(C)C)cc2)cc1 (centres undefined)	-13.9%[46.1 µM]	.	0.7%	.	-9.6%	.	1.8%	9.4%
N#C/C(=N/Nc1ccc(S(=O)(=O)N2CCOCC2)cc1)C(N)=O	-19.6%[14.2 µM]	.	1.5%	-0.6%	3.8%	.	20.1%	-7.2%
O=c1cc(-c2ccc(Cl)cc2)nc(N2CCN(c3ccccc3)CC2)[nH]1	.	.	-1.6%	.	0.8%	.	-0.3%	-11.7%
O=C(O)C1C2CCC(O2)C1C(=O)O (centres undefined)	?	7.5%	.	.	-8.3%	-1.7%	.	.
CCOC(=O)c1cc(C#N)c(N2CCCC2)nc1-c1ccccc1	?	-4.4%	-16.7%	?	-2.9%	-20.4%	-15.1%	-0.9%
COc1ccc(-n2c(=O)c3ccccc3n(CC(=O)NCCc3ccc(OC)c(OC)c3)c2=O)cc1	1.7%[46.1 µM]	2.3%	.	25.7%[46.1 µM]	.	-0.8%	-24.6%	.
CN1CCN(CCNC(=O)Nc2ccc(Cl)cc2)CC1	0.5%	.	2.7%	?	0.3%	.	19.0%	?
COc1ccc(OC)c(Nc2nc(N)nc(-c3cc4ccccc4o3)n2)c1	3.4%	?	-0.1%	-17.5%	-14.9%	3.3%	?	-7.0%
CCOC(=O)C1CCCN(Cc2ccc(OCC)cc2)C1 (centres undefined)	-28.3%	-5.2%	2.5%	7.5%	-8.4%	1.0%	.	-3.8%
CCn1c(N)nc2ccccc21	2.4%	4.9%	-7.2%	2.6%	-3.9%	-1.3%	14.5%	-5.9%
Cc1ccccc1NC(=O)CNc1ccccc1C(=O)NCc1ccco1	-0.1%	-10.8%	-9.0%	-2.2%	-1.0%	-5.1%	?	3.3%
COc1cccc(NC(=O)Cn2c(=O)c3c(ncn3Cc3ccccc3)n(Cc3ccccc3)c2=O)c1	?	?	14.1%	-10.1%	-1.7%	8.5%	-18.9%	5.6%
C/C(=N\NC(=O)Cc1ccc(Cl)c(Cl)c1)c1cccnc1	-13.2%[46.1 µM]	.	-2.6%	-0.1%[46.1 µM]	-0.8%	.	-6.8%	0.7%

Continuation.
SMILES	Marburg entry inh	Cruzain inh noDet	SARS PLpro yeast	Lassa entry inh	NS1 function inh	Cruzain Triton	StopGo reporter	RE007 growth inh
CC1C=CCC2C(=O)N(c3ccc(OC(=O)c4cccs4)cc3)C(=O)C12 (centres undefined)	-1.9%	.	3.6%	5.3%	.	.	-10.9%	22.8%
O=C(NCC(c1ccc2c(c1)OCO2)N1CCOCC1)c1c(F)cccc1F (centres undefined)	.	-10.5%	.	?	.	-1.4%	17.4%	.
COc1cccc(OCc2cc(C3Nc4ccccc4C(=O)N3Cc3ccco3)ccc2OC)c1 (centres undefined)	?	15.8µM*	-8.4%	8.91µM*	15.5%	-6.5%	-20.8%	2.5%
Cc1ccc2c(C)nc(Nc3nc(CSc4nc5ccccc5s4)cc(=O)[nH]3)nc2c1	-2.7%[46.1 µM]	.	.	?	.	.	-22.9%	2.8%
CC(CCc1ccccc1)NC(=O)CSc1nnnn1C (centres undefined)	?	-9.2%	3.7%	0.6%	-0.8%	1.0%	.	-5.1%
O=C(c1cccc(Cl)c1)N1CCC(=O)N(C(COCc2ccccc2)Cc2ccccc2)CC1 (centres undefined)	?	14.0%	10.2%	4.61µM*	-28.6%	-5.5%	-20.3%	-5.6%
COc1cc(OC)cc(-c2oc3cccnc3c2C#CCCO)c1	.	.	4.9%	.	1.2%	.	-12.3%	-2.1%
CCOc1ccccc1NC(=O)C1=C(C)NC(=S)NC1c1cccs1 (centres undefined)	?	-9.2%	0.1%	?	11.7%	0.8%	20.8%	-10.9%
COc1ccc(-n2c(C)cc(C(=O)C[N+]34CCN(CC3)CC4)c2C)cc1	?	.	0.1%	0.6%[46.1 µM]	.	.	-11.1%	-18.2%

Source: PubChem
